Compound activity (PubChem BioAssay)
Sa growth 42C: S. aureus growth inhibition at 42 and 30 °C, primary screen, LtaS inhibitor project, RN4220, two temperatures. relative growth, % (concentration not given with the values). OD600, 20 h, 42 °C; stronger effect = lower value. hit rate 0.53% among 170,000;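 active means growth at 42 °C up to 50% and 20 or more points under that at 30 °C, or under 10% at both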;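 further: 300 nL library stock went into each well; scaled to the means of positive and negative controls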
GIV Gai3 FP: inhibitors of GIV peptide binding to Galpha-i3, primary screen, biochemical, fluorescence polarization, FITC-GIV GBA peptide, rat Galphai3; hit rate 0.42% among 210,000; percent of control (FP), % (test concentration not listed); AID 1224905, 2016; 90 min; stronger effect = lower value; scaled: aluminum fluoride 0%, vehicle 100%;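 active means replicate mean at 85% of control or lower, very high polarization wells dropped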;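 further: wells of about 15 µL received 100 nL stock; the first replicate is given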
Target sequence (P08753 whole entry, looked up): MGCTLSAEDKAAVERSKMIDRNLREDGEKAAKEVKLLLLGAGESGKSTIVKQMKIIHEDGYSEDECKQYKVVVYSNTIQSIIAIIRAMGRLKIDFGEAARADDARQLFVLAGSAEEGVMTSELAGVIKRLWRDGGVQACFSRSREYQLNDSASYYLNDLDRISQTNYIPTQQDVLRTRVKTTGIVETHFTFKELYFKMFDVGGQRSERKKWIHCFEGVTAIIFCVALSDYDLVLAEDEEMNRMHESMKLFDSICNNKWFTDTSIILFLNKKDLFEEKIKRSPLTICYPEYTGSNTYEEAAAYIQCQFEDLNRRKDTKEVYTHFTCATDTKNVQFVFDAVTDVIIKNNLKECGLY
HCMV UL50-53 inh: inhibitors of HCMV UL50-UL53 interaction, biochemical, HTRF. HCMV UL50-UL53 nuclear egress complex (human cytomegalovirus). hit rate 0.15% among 190,000. normalized percent inhibition. inhibition, % (concentration not given with the values);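 active means both replicates at 50% or more, plus weaker picks with an unusually low signal ratio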;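 further: stock transfer was 100 nL into about 20 µL; 0% = negative control wells and 100% = wells with untagged competitor protein; inactives centre near -12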
Sa growth 42C second temp: further read-out of Sa growth 42C, marked with its call; relative growth, %; measured here: growth at 30 °C;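 optical density after 20 h as mean of two plates; 100% = untreated growth and lower means inhibition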
An asterisk follows results filed as active; . = no result given; & = joins results of further samples.

Results follow in this order: Sa growth 42C, Sa growth 42C second temp, GIV Gai3 FP, HCMV UL50-53 inh
> COCCN1C(=O)c2ccccc2C(C(=O)NCC2COc3ccccc3O2)C1c1ccc(F)cc1 (stereo unspecified)
  98.8, 78.0, 95.7, .
> Cc1ccc(C(C)C)c(OCC(=O)Nc2cc(-c3nc4ncccc4o3)ccc2Cl)c1
  98.6, 97.6, 95.2, .
> Cc1ccccc1Cc1c(C)nc2nc(SCC(=O)NC(C)c3ccccc3)nn2c1C (stereo unspecified)
  96.6, 80.5, 107.3, -12.0
> CC(C(=O)NCc1ccco1)N1CCN(C)CC1 (stereo unspecified)
  117.2, 89.2, 93.3, 1.7
> Cc1ccc(C(=O)C(OC(=O)c2c(C)cc(=O)oc2C)c2ccccc2)cc1 (stereo unspecified)
  111.0, 79.8, 99.4, .
> CCC(CO)NC(=S)Nc1ccccc1C (stereo unspecified)
  114.5, 98.5, ., -3.5
> CCn1nc(C)c2c(-c3ccccc3)cc(=O)n(C(C)C(=O)NCCC(C)C)c21 (stereo unspecified)
  77.7, 92.1, 104.0, .
> COc1ccccc1CNC(=O)COC(=O)Cc1ccc(Br)cc1
  97.6, 89.0, ., -8.3
> CCCCNC(=O)CSc1nnc(C)c2c(C)n(-c3ccccc3)nc12
  99.1, 91.8, 109.0, .
> CC(=O)Nc1ccc(NC(=O)CN2C(=O)CCn3nc(-c4cn(C)c5ccccc45)cc32)cc1
  ., ., 102.5, -30.3
> COc1cc(C(CC(=O)NCc2ccccc2Cl)N2Cc3ccccc3C2=O)cc(OC)c1OC (stereo unspecified)
  87.0, 77.3, 102.2, .
> CC(Sc1nc(-c2ccccc2)cc(C(F)(F)F)n1)C(=O)NN1CCCCC1 (stereo unspecified)
  114.5, 101.2, 110.6, -27.2
> CCC(Sc1nc2sc(C(=O)OC)c(C)c2c(=O)n1N)C(=O)N(CC)CC (stereo unspecified)
  86.4, 75.4, 100.6, -3.0
> FC(F)(F)C(Cl)Br (stereo unspecified)
  89.4, 86.4, ., -53.4
> O=C(NCCc1ccccc1)[C@@H](c1ccccc1)N1Cc2ccccc2C1=O
  90.8, 90.8, 100.3, .
> N/C(=N/c1nc(CSc2ccc(Cl)cc2)cc(=O)[nH]1)Nc1ccc(F)cc1
  105.8, 87.5, 96.9, 12.3
> CNC(C)c1ccc(OC)c(OC)c1 (stereo unspecified)
  109.2, 81.4, 97.3, -11.1
> C=CCc1cccc(/C=C(/C#N)C(N)=O)c1O
  86.2, 82.4, 106.8, -117.9
> Clc1cc2nsnc2cc1Cl
  93.6, 84.3, 106.1, -56.7
> CCOc1ccc(N2C(=O)NC(=O)/C(=C/c3ccc(OC)c(Br)c3)C2=O)cc1
  ., ., 104.7, -0.4
> COC(=O)c1ccccc1NC(=O)CCS(=O)(=O)c1nc(-c2ccc3c(c2)OCO3)cc(C(F)(F)F)n1
  83.3, 101.2, 110.1, 4.0
> O=C(Cc1ccccc1)NCCO
  ., ., 101.4, -12.7
> COC(=O)c1ccccc1NC(=O)c1c(Cl)nc2sccn12
  88.6, 94.9, ., 0.8
> Cn1c(CNC(=O)CSc2nnc(-c3ccc4c(c3)OCO4)o2)nc2ccccc21
  ., ., 102.9, -18.7
> O=C(CCCn1c(=O)oc2ccccc21)N1CCN(S(=O)(=O)c2ccc3c(c2)CCC3)CC1
  72.1, 90.6, ., -26.2
> CCSC1=C(C#N)C(=O)NC(CO)S1 (stereo unspecified)
  111.0, 78.6, 102.5, .
> Clc1cccc(-n2ncc3c(NC4CCCCCC4)ncnc32)c1
  82.2, 85.0, 103.1, .
> Nc1nnnn1Cc1ccccc1
  98.8, 89.9, 91.3, -8.7
> COC(=O)CCn1nc(-c2ccc(C)cc2)c2ccccc2c1=O
  102.8, 89.6, 96.4, .
> COCCNC(=O)CSc1nc(-c2ccc(C(C)C)cc2)no1
  ., ., 100.8, 0.8

5 entries from above, arranged by the value under GIV Gai3 FP, highest first.
Structure	GIV Gai3 FP
CCn1nc(C)c2c(-c3ccccc3)cc(=O)n(C(C)C(=O)NCCC(C)C)c21 (stereo unspecified)	104.0
CC(=O)Nc1ccc(NC(=O)CN2C(=O)CCn3nc(-c4cn(C)c5ccccc45)cc32)cc1	102.5
COc1cc(C(CC(=O)NCc2ccccc2Cl)N2Cc3ccccc3C2=O)cc(OC)c1OC (stereo unspecified)	102.2
COCCNC(=O)CSc1nc(-c2ccc(C(C)C)cc2)no1	100.8
CNC(C)c1ccc(OC)c(OC)c1 (stereo unspecified)	97.3

Going on with the list:
Results follow in this order: Sa growth 42C, Sa growth 42C second temp, GIV Gai3 FP, HCMV UL50-53 inh
> Nc1ccn([C@H]2CC[C@@H](CO)O2)c(=O)n1
  89.6&88.4&114.2, 76.4&76.4&72.9, 101.5&105.1, -23.2&5.2&-14.3&-13.6
> CCOC(=O)C1CCCCN1c1c(-c2ccc(C)cc2)c(=O)c1=O (stereo unspecified)
  ., ., 115.8, -5.7
> CCN=C1S/C(=C2\C(=O)N(C)c3ccccc32)C(=O)N1CC
  106.7, 95.5, 103.6, -6.2
> CC12C=CC(C)(O1)C1C(=O)N(c3cc(C(F)(F)F)ccc3Cl)C(=O)C12 (stereo unspecified)
  ., ., 99.6, -6.2
> CCCC(=O)Nc1nc2ccc(N)cc2s1
  100.1, 93.6, 104.0, -2.8
> CCn1c(NCc2ccc(OC)cc2)nc2ccccc21
  111.2, 89.2, 101.7, .
> O=S(=O)(c1ccccc1)c1nnn2c1nc(N1CCCCC1)c1sccc12
  92.0, 84.8, 105.4, .
> CC(=O)N1CCC2(CC1)CC(=O)c1cc(OCC(=O)N3CCCC3)ccc1O2
  115.8, 92.7, 100.8, .
> CC1CN(c2cc(=O)n(-c3ccc(Cl)cc3)c(=O)[nH]2)CC(C)O1 (stereo unspecified)
  88.7, 88.5, 100.6, .
> COc1ccc(OC)c(C(c2c(O)[nH]c(=S)[nH]c2=O)N2CCN(c3ccccc3)CC2)c1 (stereo unspecified)
  94.7, 89.8, 104.2, .
> CCC(CO)n1c(SCc2cc(=O)oc3cc(C)ccc23)nc2ccccc2c1=O (stereo unspecified)
  92.0, 70.1, ., -32.5
> Cc1ccc(CNC(=O)CCn2ccc3cc(S(=O)(=O)N4CCCC4)ccc32)cc1
  103.4, 87.6, 98.5, .
> COC(=O)COC(=O)c1ccc2[nH]c(=O)c(=O)[nH]c2c1
  91.7, 99.0, ., -19.4

Random excerpt: 2 compounds from above, in no set order.
Results follow in this order: Sa growth 42C, Sa growth 42C second temp, GIV Gai3 FP, HCMV UL50-53 inh
> Cc1ccc(CNC(=O)CCn2ccc3cc(S(=O)(=O)N4CCCC4)ccc32)cc1
  103.4, 87.6, 98.5, .
> CCN=C1S/C(=C2\C(=O)N(C)c3ccccc32)C(=O)N1CC
  106.7, 95.5, 103.6, -6.2

Filtered by structure, the entries above containing two or more sulfur atoms (three)
Results follow in this order: Sa growth 42C, Sa growth 42C second temp, GIV Gai3 FP, HCMV UL50-53 inh
> CCC(Sc1nc2sc(C(=O)OC)c(C)c2c(=O)n1N)C(=O)N(CC)CC (stereo unspecified)
  86.4, 75.4, 100.6, -3.0
> CCSC1=C(C#N)C(=O)NC(CO)S1 (stereo unspecified)
  111.0, 78.6, 102.5, .
> O=S(=O)(c1ccccc1)c1nnn2c1nc(N1CCCCC1)c1sccc12
  92.0, 84.8, 105.4, .

Record cards (already shown). Screens in order: Sa growth 42C | Sa growth 42C second temp | GIV Gai3 FP | HCMV UL50-53 inh
O=S(=O)(c1ccccc1)c1nnn2c1nc(N1CCCCC1)c1sccc12 is entered as 92.0 | 84.8 | 105.4 | .
CCOC(=O)C1CCCCN1c1c(-c2ccc(C)cc2)c(=O)c1=O (stereo unspecified) is entered as . | . | 115.8 | -5.7
CC(=O)N1CCC2(CC1)CC(=O)c1cc(OCC(=O)N3CCCC3)ccc1O2 is entered as 115.8 | 92.7 | 100.8 | .
CCCC(=O)Nc1nc2ccc(N)cc2s1 is entered as 100.1 | 93.6 | 104.0 | -2.8
Cc1ccc(CNC(=O)CCn2ccc3cc(S(=O)(=O)N4CCCC4)ccc32)cc1 is entered as 103.4 | 87.6 | 98.5 | .

Hits appear at their usual frequency; any-hit rate near 0.8%.
